Screens: PubChem BioAssay, ICCB-Longwood Screening Facility, Harvard Medical School
Mtb MenB inh = inhibitors of Mycobacterium tuberculosis MenB enzyme; inhibition, %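 (about 12 µg/mL by stock and volumes)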; actives 0.43% (n = 100,000); P9WNP5; MenB enzyme assay, absorbance read-out; some hits fall short of the stated cut; AID 540299;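 active = mean of two replicates above 30%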;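 also: 0% = no compound and 100% = wells with inactive enzyme; the first replicate is given; strong numbers were not always called active; inactives centre near -10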
PV pol inh = poliovirus RNA polymerase inhibition. P03300. poliovirus polymerase elongation, fluorescence polarization; stronger effect = lower value. % elongation, % (compound at 16.7 µg/mL). actives 0.66% (n = 150,000); in the data active = % elongation below about 90%; also: some results filed as inactive read as strong as hits
Target sequence (P03300 1749-2209 limits assumed): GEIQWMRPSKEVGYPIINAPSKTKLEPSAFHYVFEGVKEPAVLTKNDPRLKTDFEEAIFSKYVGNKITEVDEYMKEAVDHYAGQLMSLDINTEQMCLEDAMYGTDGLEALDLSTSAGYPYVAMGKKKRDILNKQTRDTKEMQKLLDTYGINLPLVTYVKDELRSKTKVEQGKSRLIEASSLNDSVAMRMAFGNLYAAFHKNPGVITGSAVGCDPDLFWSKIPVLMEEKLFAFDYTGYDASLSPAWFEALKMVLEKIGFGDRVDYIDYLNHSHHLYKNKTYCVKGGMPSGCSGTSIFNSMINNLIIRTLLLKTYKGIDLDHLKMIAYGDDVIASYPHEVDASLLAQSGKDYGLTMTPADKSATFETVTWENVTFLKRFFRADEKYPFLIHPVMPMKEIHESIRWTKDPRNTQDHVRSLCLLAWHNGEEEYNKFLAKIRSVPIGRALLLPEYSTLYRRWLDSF
Mtb MbtI inh = blocks the Mycobacterium tuberculosis siderophore enzyme MbtI | P9WFX0 | purified MbtI enzyme, fluorescence intensity read-out | inhibition, %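 (about 17 µg/mL by stock and volumes)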 | actives 0.89% (n = 100,000);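 active = above 50% in both replicates, above 80% if mildly self-fluorescent; inactive = the rest, strongly fluorescent compounds included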;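 also: 0% = mean of negative and 100% = mean of positive controls; one replicate is shown; some compounds called inactive have numbers as strong as hits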
Target sequence (P9WFX0 whole entry, looked up): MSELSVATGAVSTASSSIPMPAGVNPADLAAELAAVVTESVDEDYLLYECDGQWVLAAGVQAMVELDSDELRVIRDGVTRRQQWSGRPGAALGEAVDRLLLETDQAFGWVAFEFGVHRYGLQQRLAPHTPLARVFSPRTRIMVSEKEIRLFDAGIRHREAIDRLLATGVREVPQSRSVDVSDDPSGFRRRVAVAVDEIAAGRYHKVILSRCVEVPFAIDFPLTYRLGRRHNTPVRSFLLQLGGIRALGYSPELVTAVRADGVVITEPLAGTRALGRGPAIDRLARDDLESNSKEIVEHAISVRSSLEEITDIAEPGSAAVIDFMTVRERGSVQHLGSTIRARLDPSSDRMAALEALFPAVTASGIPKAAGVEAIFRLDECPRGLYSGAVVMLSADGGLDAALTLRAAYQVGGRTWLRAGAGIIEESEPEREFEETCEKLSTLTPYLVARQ
PV pol inh intensity = second read-out of PV pol inh, no call of its own (marks repeat the call); % elongation; measured here: total intensity read-out; formula for this scale not given here;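 total fluorescence in place of polarization; lower means less elongation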
An asterisk follows results filed as active; x = not tested or not shown.

SMILES	Mtb MenB inh	PV pol inh	PV pol inh intensity	Mtb MbtI inh
CN=C(Nc1ccc(F)cc1)c1ccccc1	-3.3	96.0	105.0	-1.5
O=C(O)c1ccccc1C(=O)Cc1ccc(I)cc1	x	101.0	103.0	5.2
Cc1nn(CCC#N)cc1C=C1C(=O)NC(=O)NC1=O	-26.5	102.0	99.0	32.7
CC1=NN(c2ccccc2)C(=O)/C1=C\N1CCC(C)CC1	4.5	100.0	101.0	20.7
COc1ccc(-c2csc(N3N=C(C)C(C(c4ccc(Cl)cc4)C(C#N)C(N)=O)C3=O)n2)cc1 (stereo not drawn)	-26.7	107.0	109.0	x
FC(F)(F)c1cccc(N2CCN(c3ncnc4nc[nH]c34)CC2)c1	-13.0	103.0	103.0	29.8
COc1ccc(NCc2ccc(OCC(N)=O)c(Cl)c2)cc1	-2.9	101.0	103.0	-9.2
Cc1cc(CN2CCOCC2)c(O)c(C2(C)CCCCC2)c1	-1.8	99.0	105.0	-9.6
CCOc1ccc(OCCC(=O)O)cc1	x	103.0	103.0	-4.4
NC(=O)COc1ccc(Cl)cc1	0.2	103.0	111.0	-12.7
CCc1nc2ccccc2c(C)c1C(=O)O	-2.6	106.0	103.0	-9.1
CC(C)c1ccc2c(ccc[n+]2C)c1	-14.8	105.0	113.0	67.7
O=C(COC(=O)c1ccc(Br)cc1)c1ccc(Br)cc1	-17.8	100.0	102.0	-3.0
Cn1c(SCc2ccccc2)nnc1C1CCN(C(=O)c2ccc3c(c2)OCO3)CC1	10.0	100.0	102.0	-4.3
CC1(C)CC(NC(=O)CN2CCCC2=O)CC(C)(C)N1	1.8	102.0	102.0	-17.2
O=c1c2nccnc2nc(SCc2ccc(F)cc2)n1Cc1ccccc1	-56.1	101.0	104.0	7.0
CC(OC(=O)c1cc(S(=O)(=O)N(C)C)ccc1N1CCCC1)C(=O)N1CCc2ccccc21 (stereo not drawn)	-2.2	103.0	111.0	0.4
Cc1n(CC(=O)c2ccc(F)cc2)c2ccccc2[n+]1C	8.5	102.0	105.0	4.0
CN=C1SC(C(=O)Nc2ccc(C)cc2Br)C(N)=C1C(=O)NCCN1CCOCC1 (stereo not drawn)	-9.0	101.0	106.0	-3.4
CCN(CC)c1ccc(NC(=O)CN2CCN(CC(=O)Nc3ccc(Br)cc3)CC2)cc1	1.3	100.0	103.0	-9.4
C#CCNc1cc(-c2ccccc2)nc2nncn12	11.7	100.0	101.0	-29.8
O=C(/C=C1\SC(=O)N(CN2CCCCC2)C1=O)Nc1ccccc1	-45.4	99.0	98.0	16.1
CCOC(=O)Cc1ccccc1C(=O)OC	4.8	105.0	100.0	x
CCn1c(SC)nnc1C1CCCN(CC(=O)NCc2ccc3c(c2)OCO3)C1 (stereo not drawn)	-40.1	104.0	104.0	-8.4
O=c1cc(CSc2n[nH]c(=O)n2Cc2ccco2)c2ccc(O)cc2o1	-23.7	106.0	105.0	-2.7
Cc1cc(C)nc(NC(C)(C)C(=O)O)n1	-18.3	102.0	101.0	4.3
N=CC1=C(O)CC(c2ccccc2)CC1=O (stereo not drawn)	-19.2	102.0	103.0	10.9
CC(=O)n1cc(/C=N/NC(N)=O)c2ccccc21	-7.4	99.0	101.0	27.4
O=C(CCn1c(SCc2ccc(F)cc2)nc2c(sc3ccccc32)c1=O)NCC1CCCO1 (stereo not drawn)	-25.6	105.0	104.0	39.0
Cc1nnc2sc(SCC(=O)Nc3nccs3)nn2c1=O	-4.1	102.0	103.0	-1.1

Four neighbouring records out of the list so far, quoted:
SMILES	Mtb MenB inh	PV pol inh	PV pol inh intensity	Mtb MbtI inh
N=CC1=C(O)CC(c2ccccc2)CC1=O (stereo not drawn)	-19.2	102.0	103.0	10.9
CC(=O)n1cc(/C=N/NC(N)=O)c2ccccc21	-7.4	99.0	101.0	27.4
O=C(CCn1c(SCc2ccc(F)cc2)nc2c(sc3ccccc32)c1=O)NCC1CCCO1 (stereo not drawn)	-25.6	105.0	104.0	39.0
Cc1nnc2sc(SCC(=O)Nc3nccs3)nn2c1=O	-4.1	102.0	103.0	-1.1

Next part.
SMILES	Mtb MenB inh	PV pol inh	PV pol inh intensity	Mtb MbtI inh
O=C(CC(c1ccccc1)c1ccccc1)NCCO	-8.5	99.0	102.0	-4.6
COc1cc(C2CC(=O)Nc3ccccc3S2)cc(OC)c1OC (stereo not drawn)	2.3	103.0	104.0	2.1
COCCn1c(C)cc(/C=N/n2c(Cc3cccc4ccccc34)n[nH]c2=S)c1C	-31.4	93.0	86.0	73.2*
C=CCn1c2nc3ccccc3nc2c2c(=O)n(C3CCCC3)cnc21	-25.1	105.0	104.0	-21.4
CC(C)c1ccccc1N=C1SCCN1C1CCS(=O)(=O)C1 (stereo not drawn)	-16.2	102.0	95.0	-6.4
CC1CCC(C(C)C)C(OC(=O)CSc2nnnn2C)C1 (stereo not drawn)	-34.9	106.0	106.0	-12.0
O=C(COC(=O)c1cncc(Br)c1)NCc1ccccc1	x	100.0	105.0	-5.9
Cc1cc(C)n(C(C)CC(=O)Nc2ccc3c(c2)OCO3)n1 (stereo not drawn)	-19.3	101.0	103.0	-28.2
CC(=O)N1CCN(c2ccc(OC(=O)c3ccc(Oc4cc(Cl)cc(Cl)c4)o3)cc2)CC1	-4.2	108.0	112.0	-7.3
COCCn1c(C)cc(C(=O)CSc2nnc(-c3ccc4c(c3)OCO4)o2)c1C	-2.5	105.0	107.0	-4.2
O=C(NCc1nc(-c2ccc(Cl)cc2)no1)C12CC3CC(CC(C3)C1)C2	-2.9	100.0	103.0	-10.9
Nc1nc(SCC(=O)c2cc(-c3ccccc3)no2)ncc1C(=O)O	-30.4	100.0	93.0	8.2
COC(=O)c1cccnc1-n1c(=O)c2cccnc2n(Cc2ccccc2F)c1=O	0.8	100.0	100.0	-2.5
O=C(OC1CCOC1=O)c1cccc(S(=O)(=O)N2CCc3ccccc32)c1 (stereo not drawn)	-17.5	103.0	100.0	6.8
C=CCN1C(=O)C(CCC(=O)O)NC1=S (stereo not drawn)	-3.1	100.0	100.0	-2.1
Cc1ccc(C(=O)N2C(=Nc3cccc(C(F)(F)F)c3)SCC2(C)C)o1	-25.1	102.0	103.0	13.4
CC(C)=N/N=C1/NC(=O)C(CC(=O)Nc2cccc3ccccc23)S1 (stereo not drawn)	-22.8	102.0	102.0	18.6
CC(C)OC(=O)c1oc2c(O)c(O)ccc2c(=O)c1-c1cnn(-c2ccccc2)c1	-23.5	101.0	101.0	28.0
CCNc1c(NC(=O)c2ccccc2C)c(=O)oc2ccccc12	-13.1	98.0	104.0	8.6
COc1cccc(C(C#N)N2CCCCC2)c1O (stereo not drawn)	-13.9	98.0	98.0	24.2
CS(=O)(=NS(=O)(=O)c1ccc(-c2ccccn2)s1)c1ccc(Cl)cc1 (stereo not drawn)	-5.7	102.0	112.0	-9.1
CNC(=O)COC(=O)c1cccc(S(=O)(=O)N(C)c2ccc(C)cc2)c1	-12.3	107.0	103.0	-5.3
CCOC(=O)c1nnc(-c2ccccc2)o1	-9.3	99.0	107.0	-2.2
O=C(/C=C/c1cccs1)N(c1ccccc1)c1ccccn1	x	103.0	106.0	-11.8
Cc1ccc(/C=C/C(O)=C2/C(=O)N(C)C3(C)CC2c2ccccc2O3)cc1 (stereo not drawn)	-2.1	101.0	98.0	12.6
O=C(Nc1nccs1)c1cc(-c2ccccc2)nc2ccccc12	x	98.0	99.0	-3.5
Cn1cnnc1SC/C=C/c1ccccc1	-13.9	104.0	106.0	x
Cc1ccccc1-n1nnnc1SCC(C)C	11.2	101.0	99.0	4.6
O=C(COC(=O)c1cc(O)c(O)c(O)c1)NC1CCCc2ccccc21 (stereo not drawn)	8.1	107.0	107.0	26.1
COc1cccc(N=c2oc3cc(O)ccc3cc2C(=O)NCC2CCCO2)c1 (stereo not drawn)	12.4	97.0	108.0	-19.0
Cn1nnnc1SCCOc1ccc(C#N)cc1	-16.9	98.0	99.0	7.4
COc1ccc(C(=O)CSC#N)cc1OC	31.8*	97.0	102.0	x
Cc1cc(C(=O)N2CCN(C(c3ccccc3)c3ccccc3)CC2)n[nH]1	-11.5	102.0	102.0	-13.9
CC(C#N)(NC(=O)CSc1ccc(S(=O)(=O)N2CCCCC2)cn1)C1CC1 (stereo not drawn)	-19.3	101.0	102.0	14.1
O=C(OCC(=O)N(C1CCCCC1)C1CCCCC1)c1ccc2c(c1)OCCO2	-13.0	109.0	113.0	-9.2
CN1C(=C(C#N)C(=O)COc2ncnc3sc4c(c23)CCCC4)N(C)c2ccccc21	-21.6	98.0	108.0	5.2
Cc1cc(C(=O)COC(=O)Cn2cncn2)c(C)n1-c1ccc(F)cc1	-22.4	101.0	99.0	13.3
Cc1nn(CCC(=O)O)c2nc(-c3cccs3)cc(C(F)(F)F)c12	-14.9	100.0	101.0	108.1
CCCCC(=O)Nc1cc2[nH]c(=O)[nH]c2cc1C	17.5	100.0	103.0	-6.8
Cc1ccc(Nc2nc(C(=O)N(C)Cc3ccccc3)cs2)cc1	3.2	102.0	110.0	x

6 of the compounds above, as a markdown table.
| Compound | Mtb MenB inh | PV pol inh | PV pol inh intensity | Mtb MbtI inh |
| --- | --- | --- | --- | --- |
| Cn1nnnc1SCCOc1ccc(C#N)cc1 | -16.9 | 98.0 | 99.0 | 7.4 |
| COc1ccc(C(=O)CSC#N)cc1OC | 31.8* | 97.0 | 102.0 | x |
| Cc1cc(C(=O)N2CCN(C(c3ccccc3)c3ccccc3)CC2)n[nH]1 | -11.5 | 102.0 | 102.0 | -13.9 |
| CC(C#N)(NC(=O)CSc1ccc(S(=O)(=O)N2CCCCC2)cn1)C1CC1 (stereo not drawn) | -19.3 | 101.0 | 102.0 | 14.1 |
| O=C(OCC(=O)N(C1CCCCC1)C1CCCCC1)c1ccc2c(c1)OCCO2 | -13.0 | 109.0 | 113.0 | -9.2 |
| CN1C(=C(C#N)C(=O)COc2ncnc3sc4c(c23)CCCC4)N(C)c2ccccc21 | -21.6 | 98.0 | 108.0 | 5.2 |

Continued.
SMILES	Mtb MenB inh	PV pol inh	PV pol inh intensity	Mtb MbtI inh
CCc1nnc(SCC(=O)O)n1N	11.6	100.0	99.0	-1.9
CCc1nc2ccccc2c(C(=O)OCC(=O)Nc2ccc3c(c2)OCCCO3)c1C	-24.2	104.0	104.0	-4.8
CC(C)Cn1c(SCC(N)=O)nc2ccccc2c1=O	-5.6	103.0	103.0	7.7
CCNc1nc(N)nc(OCCNC(C)=O)n1	-42.4	103.0	99.0	1.1
Cc1cc(C)cc(OCC(=O)Nc2nccs2)c1	-8.3	100.0	101.0	9.2
CC1Cc2ccccc2N1C(=O)COc1ccc2c(c1)OCO2 (stereo not drawn)	-33.3	110.0	120.0	12.2
O=c1c(Cc2ccccc2)c(N2CCCCC2)nc2n1CCCS2	-15.0	104.0	101.0	-14.3
Cc1cccc(N2CCN(CC(=O)Nc3ccc4c(c3)OC(F)(F)O4)CC2)c1C	-5.8	102.0	108.0	-7.5
CC1Sc2ccc(Cl)cc2C(=O)/C1=C/N(C)C (stereo not drawn)	-77.3	125.0	139.0	8.9
N#Cc1ccc(COc2ncnc3sccc23)cc1	-19.4	105.0	108.0	0.6
CC(C)c1ccc(S(=O)(=O)c2ccc(NN)cc2)cc1	-13.6	103.0	99.0	-8.0
O=S(=O)(c1cccc(C(F)(F)F)c1)N1CCNCC1	2.6	103.0	101.0	-11.2
COc1ccc(N2CCN(C(=O)CNC3CC3)CC2)cc1	-34.7	101.0	99.0	-17.8
O=C(O)c1nn(C2CCOC2=O)c(=O)c2ccccc12 (stereo not drawn)	-25.1	99.0	93.0	-13.4
O=C(NCc1ccccc1)/C(=C\c1ccccc1)NC(=O)c1ccccc1	-13.3	104.0	105.0	-7.6
CN(C)CCCn1c2c(c(SCC(=O)Nc3ccccc3)nc1=O)CCC2	-29.3	107.0	95.0	-4.0
CCOc1ccc(S(=O)(=O)Nc2ccccc2C(F)(F)F)cc1	-28.6	101.0	101.0	-22.6
C/C(N)=C(/C#N)C(=O)CSc1n[nH]c(-c2cccs2)n1	-6.6	102.0	99.0	147.2
Cc1ccc(Cl)cc1N1CCN(C(=O)C2CCN(S(=O)(=O)c3c(C)noc3C)CC2)CC1	-19.4	102.0	103.0	-2.8
CN(C)c1ccc(/C=[N+](\[O-])C2(C)CCCCC2=O)cc1 (stereo not drawn)	-66.3	98.0	101.0	4.3
Cc1ccc(Cn2ncc3c(N4CCCC4)ncnc32)cc1	-41.0	103.0	102.0	0.9
Cc1cc(-n2c(C)cc(CNCc3nc4ccccc4[nH]3)c2C)no1	-0.6	98.0	95.0	-1.8
O=C1c2ccccc2NC2(C(=O)Nc3ccccc32)N1CCOc1ccccc1 (stereo not drawn)	-16.1	98.0	100.0	89.2
COc1ccc(CNC(=O)C2CCNCC2)cc1	-26.9	105.0	102.0	-13.6
CSC1=C(C#N)C2(CCCCC2)C(C#N)=C(NC(=O)CSc2nncn2-c2ccccc2)N1	-6.8	99.0	105.0	0.5
